rRNA inh HTS: inhibitors of bacterial rRNA selective over humanized ribosomes; 350,000 compounds, 1.6% hits; GFP signal change (wild-type ribosome), % (no concentration beside the values); E. coli WT GFP vs humanized-ribosome RFP mutants, fluorescence, 24 h; stronger effect = lower value; DMSO median 0, no signal -100;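 active = significant combined selectivity score with lowered wild-type GFP, culture density cut under 30%, mutant RFP and density less affected; inactive = any of these conditions unmet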; also: one replicate is shown; some compounds called inactive have numbers as strong as hits
rRNA inh HTS OD600: also measured in rRNA inh HTS; calls as there; OD600 change, %; measured here: OD600 growth;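 optical density of the mix in the first replicate; 0 = DMSO median and -100 = no signal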
rRNA inh HTS RFP: further read-out of rRNA inh HTS, marked with its call; RFP signal change, %; measured here: RFP humanized mutant strains;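 first replicate; 0 = DMSO median and -100 = no signal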
An asterisk follows results filed as active; & = joins results of further samples. Only part of the results is shown. The share of hits here may be higher or lower than overall.

SMILES | rRNA inh HTS | rRNA inh HTS OD600 | rRNA inh HTS RFP
COc1cccc(-c2ccc3c(c2)[C@@H]2[C@@H](CCN2S(=O)(=O)c2ccccc2F)[C@@H](CO)N3)c1 | -14 | -7 | -1.9
CO[C@@H]1CN(C)C(=O)c2ccc(NS(=O)(=O)c3cccc(F)c3)cc2OC[C@@H](C)N(C(=O)Cc2cccnc2)C[C@H]1C | 0 | 1 | 0.5
COc1cccc(CNC(=O)CCNC(=O)N2CC(=O)Nc3ccccc32)c1 | 18 | 16 | 6.9
C[C@H](CO)N1C[C@H](C)[C@@H](CN(C)S(C)(=O)=O)OCc2ccccc2-c2ccccc2C1=O | 2 | 4 | -1.0
C=CCC1CCCCC1=C(C#N)c1ccccc1 (stereo unspecified) | 11 | 16 | -1.1
COc1ccc2c3c([nH]c2c1)[C@H](CO)N(Cc1ccccc1)CC31CN(S(C)(=O)=O)C1 | 0 | -9 | 1.6
Cc1noc(C)c1NC(=O)N(C)C[C@@H]1Oc2c(NS(=O)(=O)c3ccc(Cl)cc3)cccc2C(=O)N([C@@H](C)CO)C[C@H]1C | 5 | 9 | -2.3
C[C@H](CO)N1C[C@H](C)[C@@H](CN(C)CC2CCCCC2)Oc2c(NC(=O)c3ccncc3)cccc2C1=O | -9 | -5 | 0.1
CC1(Cc2cccc(F)c2)C(=O)Nc2ccc(-c3cccnc3)cc21 (stereo unspecified) | -52 | -74 | -15
O=C(c1cccnc1)N1CC(=O)N2[C@H](CO)[C@H](c3ccc(-c4ccc(F)cc4)cc3)[C@H]2C1 | 0 | 5 | -0.2
CCCC(=O)Nc1ccc2c(c1)C(=O)N(C)C[C@@H](OC)[C@H](C)CN(Cc1ccccc1OC)[C@H](C)CO2 | -2 | 1 | -1.8
CCCCCNC(=O)C(c1cc2ccccc2o1)n1c(=O)c(-c2ccco2)nc2ccccc21 (stereo unspecified) | 4 | 13 | -1.8
COc1cccc(C#Cc2ccc([C@H]3[C@H]4CN(C(=O)C5CC5)CC(=O)N4[C@H]3CO)cc2)c1 | -3 | -14 | 10
C[C@@H]1CCCCO[C@@H](CN(C)Cc2ccccc2)[C@@H](C)CN([C@@H](C)CO)C(=O)c2cc(NC(=O)c3ccccc3)ccc2O1 | 5 | 4 | 0.7
C[C@H]1CN([C@@H](C)CO)C(=O)c2cc(-c3ccccc3)cnc2O[C@@H]1CN(C)C(=O)c1ccccn1 | 3 | 13 | 0.2
CNC[C@@H]1Oc2ccc(NC(=O)CCCN(C)C)cc2CC(=O)N([C@H](C)CO)C[C@H]1C | 1 | 8 | -2.5
COc1ccc2c3c(n(C)c2c1)[C@H](CO)N(Cc1cccnc1)CC31CCN(C(=O)c2cccnc2)CC1 | 4 | 2 | -0.1
CCC(=O)Nc1ccc2c(c1)OC[C@@H](C)N(C(=O)C1CC1)C[C@@H](C)[C@H](OC)CN(C)C2=O | -2 | 0 | -1.0
CCC1=C(Nc2ccccc2)COC1=O | -1 | -2 | 1.0
CCCNC(=O)N1CC2(CN(Cc3cccc(F)c3)C2)c2c([nH]c3cc(OC)ccc23)[C@H]1CO | -10 | -18 | 11
C[C@@H]1CN([C@H](C)CO)C(=O)c2c(c3ccccc3n2C)-c2ccccc2CO[C@H]1CN(C)C(=O)Cc1ccccc1 | 8&-4 | -7&-1 | 3.0&3.2
CO[C@@H]1CN(C)C(=O)c2cc(NC(C)=O)ccc2OC[C@H](C)N(C(=O)C2CC2)C[C@@H]1C | 1 | 11 | -1.6
C[C@@H]1CN([C@@H](C)CO)C(=O)Cc2cc(NC(=O)CCN3CCOCC3)ccc2O[C@@H]1CN(C)C(=O)Nc1ccc(F)cc1 | 1 | 3 | -2.7
Cc1nn(C)cc1NC(=O)C[C@H]1CC[C@@H]2[C@@H](COc3ccc(NC(=O)C4CCOCC4)cc3C(=O)N2C)O1 | -1 | 0 | -0.4
CS(=O)(=O)N1Cc2cc(C(=O)NCC3CC3)nc(-c3cccc(-c4cccnc4)c3)c2[C@@H]1CCO | 0 | 6 | -0.6
Cc1cccc2nc(-c3ccccc3)c(-c3ccc(CN4CCC5(CC4)CNc4ccccc45)cc3)nc12 | 12 | 22 | 13
C[C@@H]1CN([C@H](C)CO)C(=O)Cc2cc(NC(=O)c3ccncc3)ccc2O[C@H]1CN(C)CC1CC1 | -2 | -1 | 1.2
CNC(=O)C[C@@H]1CC[C@@H]2[C@H](COc3ccc(NC(=O)c4ccccc4Cl)cc3C(=O)N2C)O1 | -15 | -4 | 1.0
C[C@H]1CN([C@@H](C)CO)C(=O)c2cc(C#Cc3ccccc3)cnc2O[C@@H]1CN(C)C(=O)c1ccccc1 | -1 | -18 | 6.8
Cc1cn([C@H]2C[C@H](O)[C@@H](/C=C/C(=O)NCCc3ccc(S(N)(=O)=O)cc3)O2)c(=O)[nH]c1=O | 13 | 16 | -1.2
Cc1noc(C)c1S(=O)(=O)N(C)C[C@@H]1OCCCC[C@@H](C)Oc2ccc(NC(=O)Nc3ccccc3)cc2C(=O)N([C@@H](C)CO)C[C@H]1C | -5 | -1 | 0.3
O=C(C[C@@H]1CC[C@@H](NC(=O)NC2CCCCC2)[C@H](CO)O1)NCc1ccc(F)cc1 | 4 | 10 | -1.0
C[C@@H]1CN([C@H](C)CO)C(=O)Cc2cc(NC(=O)Cn3cnnn3)ccc2O[C@H]1CN(C)S(=O)(=O)c1ccc(F)cc1 | 1 | 9 | -2.7
CO[C@@H]1CN(C)C(=O)c2ccc(NC(=O)C3CC3)cc2OC[C@H](C)N(CC2CCOCC2)C[C@H]1C | -3 | 0 | -1.9
Cn1cnc(S(=O)(=O)N[C@@H]2CC[C@H](CC(=O)NCC3CC3)O[C@@H]2CO)c1 | 2 | 0 | -1.9
O=C(Nc1ccccc1F)N1CC(=O)N2[C@H](CO)[C@H](c3ccc(-c4ccccc4)cc3)[C@@H]2C1 | -2 | 2 | -1.3
COc1ccc(CN(C)C[C@@H]2OCCCC[C@H](C)Oc3ccc(NS(=O)(=O)c4ccccc4)cc3C(=O)N([C@@H](C)CO)C[C@H]2C)cc1 | -2 | 0 | -0.6
CCOc1ccccc1Nc1cc(C)nc2ccccc12 | 9 | 10 | 0.6
COc1ccc(NC(=O)Nc2ccc3c(c2)CC(=O)N([C@H](C)CO)C[C@@H](C)[C@@H](CN(C)S(=O)(=O)c2ccc(C)cc2)O3)cc1 | -2 | -4 | 1.5
CC(C)NC(=O)N(C)C[C@@H]1OCCCC[C@@H](C)Oc2ccc(NS(=O)(=O)c3ccc(Cl)cc3)cc2C(=O)N([C@@H](C)CO)C[C@@H]1C | 2 | -7 | 0.1

Single records, as listed above. Screens in order: rRNA inh HTS | rRNA inh HTS OD600 | rRNA inh HTS RFP
C[C@H]1CN([C@@H](C)CO)C(=O)c2cc(C#Cc3ccccc3)cnc2O[C@@H]1CN(C)C(=O)c1ccccc1 as listed: -1 | -18 | 6.8
Cc1cn([C@H]2C[C@H](O)[C@@H](/C=C/C(=O)NCCc3ccc(S(N)(=O)=O)cc3)O2)c(=O)[nH]c1=O as listed: 13 | 16 | -1.2
O=C(Nc1ccccc1F)N1CC(=O)N2[C@H](CO)[C@H](c3ccc(-c4ccccc4)cc3)[C@@H]2C1 as listed: -2 | 2 | -1.3

4 entries from above, sorted by heavy-atom count, smallest number first.
SMILES | rRNA inh HTS | rRNA inh HTS OD600 | rRNA inh HTS RFP
CCC1=C(Nc2ccccc2)COC1=O | -1 | -2 | 1.0
CCOc1ccccc1Nc1cc(C)nc2ccccc12 | 9 | 10 | 0.6
CS(=O)(=O)N1Cc2cc(C(=O)NCC3CC3)nc(-c3cccc(-c4cccnc4)c3)c2[C@@H]1CCO | 0 | 6 | -0.6
C[C@@H]1CCCCO[C@@H](CN(C)Cc2ccccc2)[C@@H](C)CN([C@@H](C)CO)C(=O)c2cc(NC(=O)c3ccccc3)ccc2O1 | 5 | 4 | 0.7

Following part
SMILES | rRNA inh HTS | rRNA inh HTS OD600 | rRNA inh HTS RFP
Cc1noc(C)c1S(=O)(=O)N(C)C[C@H]1OCCCC[C@H](C)Oc2ccc(NC(=O)Nc3ccccc3)cc2C(=O)N([C@H](C)CO)C[C@@H]1C | -3 | 4 | 2.5
C[C@H](CO)N1C[C@H](C)[C@@H](CN(C)CC2CC2)Oc2c(NS(C)(=O)=O)cccc2C1=O | 7 | 7 | -1.6
C[C@@H]1CCCCO[C@@H](CN(C)C(=O)CCC(F)(F)F)[C@H](C)CN([C@H](C)CO)C(=O)c2cc(NC(=O)c3ccncc3)ccc2O1 | 0 | 5 | 1.7
C[C@H](O)C#Cc1cnc2c(c1)C(=O)N([C@@H](C)CO)C[C@H](C)[C@@H](CN(C)C(=O)CC1CC1)O2 | 5 | 0 | -1.6
CNC(=O)C[C@H]1CC[C@H]2[C@@H](COc3ccc(NC(=O)Nc4cccc(F)c4)cc3C(=O)N2C)O1 | 1 | -1 | 2.9
C[C@H]1CN([C@@H](C)CO)C(=O)c2cc(NC(=O)CCCCCC(=O)Nc3ccccc3N)ccc2O[C@@H]1CN(C)S(=O)(=O)c1cn(C)cn1 | 2 | 4 | -0.1
C[C@@H]1CN([C@H](C)CO)C(=O)c2cc(N(C)C)ccc2O[C@@H](C)CCCCO[C@@H]1CN(C)C(=O)C1CCCCC1 | -2 | -12 | -0.5
COc1ccc(CN(C)C[C@@H]2OCCCC[C@@H](C)Oc3ccc(NC(=O)CCCN(C)C)cc3C(=O)N([C@@H](C)CO)C[C@H]2C)cc1 | 7 | 17 | -0.2
C[C@H]1CN([C@@H](C)CO)C(=O)Cc2cc(NC(=O)CCN3CCOCC3)ccc2O[C@@H]1CN(C)C | 2 | 5 | 1.1
C[C@H]1CN([C@@H](C)CO)C(=O)Cc2cc(NC(=O)Cc3cn(C)c4ccccc34)ccc2O[C@H]1CN(C)C(=O)Nc1ccc2c(c1)OCO2 | -1 | 1 | -0.2
COc1ccc2c3c([nH]c2c1)[C@H](CO)N(C(=O)C1CCCCC1)CC31CN(C(=O)NC(C)C)C1 | -5 | 4 | -2.5
CO[C@@H]1CN(C)C(=O)c2cc(NC(=O)Nc3ccccc3F)ccc2OC[C@@H](C)N(S(=O)(=O)CC(F)(F)F)C[C@H]1C | -6 | -7 | 4.6
Cc1ccc(S(=O)(=O)N(C)C[C@@H]2Oc3c(NC(=O)c4ccc(-c5nccs5)cc4)cccc3C(=O)N([C@@H](C)CO)C[C@@H]2C)cc1 | -2 | -5 | 0.0
C[C@H]1CN([C@@H](C)CO)C(=O)c2cc(NC(=O)CCN3CCOCC3)ccc2O[C@@H]1CN(C)S(=O)(=O)c1ccc(F)cc1 | 5 | 7 | -2.2
CNC[C@H]1Oc2ccc(NC(=O)CCC(F)(F)F)cc2CC(=O)N([C@@H](C)CO)C[C@@H]1C | 2 | -4 | -2.2
CC(C)[C@H](C)NC(=O)N(C)C[C@@H]1OCc2ccccc2-c2ccccc2C(=O)N([C@@H](C)CO)C[C@@H]1C | 1 | 2 | -5.8
COc1ccc(S(=O)(=O)N2CC[C@@H]3[C@@H](CO)N(C)c4ccc(-c5ccc(F)cc5)cc4[C@@H]32)cc1 | 1 | 15 | 2.0
COc1ccccc1C(=O)N1C[C@H]2[C@@H](c3ccccc31)[C@@H](CO)N2C(=O)Nc1ccccc1 | -9 | -7 | -2.2
COc1cccc(NC(=O)N[C@H]2CC[C@@H](CC(=O)NCc3ccccn3)O[C@H]2CO)c1 | 0 | -8 | -0.7
COCC(=O)N1CCCCN2[C@H](C1)[C@@H](c1ccc(-c3ccc(OC)cc3)cc1)[C@@H]2CO | -2 | -2 | 0.1
C[C@@H]1CN([C@H](C)CO)C(=O)c2cccc(NC(=O)Nc3ccc4c(c3)OCO4)c2O[C@@H]1CN(C)S(=O)(=O)c1cn(C)cn1 | 3 | 6 | -3.7
C(=C\c1ccccc1)/CN1CCN(C(c2ccnc3ccccc23)c2nnnn2-c2ccc3c(c2)OCCO3)CC1 (stereo unspecified) | 2 | 7 | 7.5
CC(C)(C)NC(=O)C(c1ccccc1)n1c(=O)c(-c2ccccc2)nc2ccccc21 (stereo unspecified) | -1 | 0 | -2.6
COc1ccccc1S(=O)(=O)N[C@@H]1CC[C@H](CC(=O)N2CCCCC2)O[C@@H]1CO | -2 | 2 | -0.6
C[C@H]1CN([C@@H](C)CO)C(=O)c2cc(-c3ccc(F)cc3)cnc2O[C@H]1CN(C)Cc1cncnc1 | 4 | -5 | -3.5
CC(C)NC(=O)N[C@@H]1CC[C@@H](CCN)O[C@H]1CO | -1 | -11 | -0.7
O=C(NCC1CC1)[C@H]1[C@H](CO)[C@H]2Cn3c(ccc(-c4ccccc4F)c3=O)[C@@H]1N2Cc1cccnc1 | 0 | 4 | 2.1
COc1cccc(C(=O)Nc2ccc3c(c2)C(=O)N(C)[C@@H]2CC[C@H](CC(=O)NCCCN4CCOCC4)O[C@@H]2CO3)c1 | -5 | 13 | -5.2
CCCCCCCCCCCCNC[C@@H]1CSCCS(=O)(=O)N1 | 6 | -10 | 7.7
COc1ccccc1CNc1nc(NCC2CC2)nc2ccsc12 | -50 | -75 | -18
COc1ccccc1NC(=O)N[C@@H]1CC[C@H](CCn2cc(C3(O)CCCC3)nn2)O[C@H]1CO | 2 | 4 | -1.8
COc1ccc(NC(=O)Nc2ccc3c(c2)C(=O)N([C@@H](C)CO)C[C@H](C)[C@H](CN(C)Cc2ccc(C(F)(F)F)cc2)OCCCC[C@@H](C)O3)cc1 | 1 | 8 | 3.1
CCCCCCCCCCCCN1CCSCCS1(=O)=O | 11 | 3 | 3.2
